# Screening results: PubChem, several laboratories
# B2AR ag: beta2AR agonists driving receptor internalization, primary screen, cell-based, FAP fluorogen, flow cytometry | Am2.2-beta2AR cells; reference of the scale not given here | Beta-2 adrenergic receptor (Homo sapiens), P07550 | 0.43% of 340,000 active | response, % (test concentration not listed);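 active means response above a set limit, near 3 SD of response in nonfluorescent compounds, cut at about 42% in these data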;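 further: stock transfer was 100 nL into about 11 µL; a reference agonist was the positive control; negative values mostly stem from fluorescent compounds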
# Calb FLC: C. albicans growth inhibition with fluconazole, primary screen, CaCi-2 strain, Alamar Blue fluorescence. C. albicans CaCi-2 (fluconazole-resistant clinical isolate) + fluconazole, 48 h. growth inhibition, % (no concentration beside the values). 0.57% of 300,000 active;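 active means most replicates above 75%; inconclusive means exactly half above 75%; inactive means most below 75%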;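 further: all wells also contain fluconazole at 8 µg/ml as a sub-toxic cotreatment; 0% = median of DMSO wells and 100% = median of geldanamycin control wells; wells of about 8 µL received 7.5 nL stock; the first replicate is given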
# RanGTP-Impb inh: inhibitors of RanGTP-importin-beta interaction, primary screen, biochemical, FRET, CFP-Ran, YFP-importin-beta, homogeneous; Ran GTPase (GTP-bound) - importin-beta complex; cell-free CFP-Ran/YFP-importin-beta FRET ratio; inhibition, % (concentration not given with the values); 1.1% of 300,000 active;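 active means most replicates above 15%; inconclusive means exactly half above 15%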;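 further: 0% = DMSO wells and 100% = Ran loaded with GDP instead of GTP; wells of about 40 µL received 100 nL stock; the first replicate is given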
# LANA-H2B inh: blockers of LANA interaction with H2A/H2B – biochemical, FP readout, HTS, primary screen | Protein LANA1 (Human herpesvirus 8 type P (isolate GK18)), Q9QR71 | cell-free LANA-H2A/H2B peptide, fluorescence polarization | inhibition, % (test concentration not listed) | 0.6% of 320,000 active; in the data active means inhibition mostly above about 10%, no sharp cut-off; inactive means mostly below about 6.7%;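 further: stock transfer was 7.5 nL into about 10 µL; 0% = median of vehicle wells and 100% = median of positive control wells; one replicate is shown; the record names a cut of 25% in any replicate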
# Target sequence (Q9QR71 whole entry, looked up): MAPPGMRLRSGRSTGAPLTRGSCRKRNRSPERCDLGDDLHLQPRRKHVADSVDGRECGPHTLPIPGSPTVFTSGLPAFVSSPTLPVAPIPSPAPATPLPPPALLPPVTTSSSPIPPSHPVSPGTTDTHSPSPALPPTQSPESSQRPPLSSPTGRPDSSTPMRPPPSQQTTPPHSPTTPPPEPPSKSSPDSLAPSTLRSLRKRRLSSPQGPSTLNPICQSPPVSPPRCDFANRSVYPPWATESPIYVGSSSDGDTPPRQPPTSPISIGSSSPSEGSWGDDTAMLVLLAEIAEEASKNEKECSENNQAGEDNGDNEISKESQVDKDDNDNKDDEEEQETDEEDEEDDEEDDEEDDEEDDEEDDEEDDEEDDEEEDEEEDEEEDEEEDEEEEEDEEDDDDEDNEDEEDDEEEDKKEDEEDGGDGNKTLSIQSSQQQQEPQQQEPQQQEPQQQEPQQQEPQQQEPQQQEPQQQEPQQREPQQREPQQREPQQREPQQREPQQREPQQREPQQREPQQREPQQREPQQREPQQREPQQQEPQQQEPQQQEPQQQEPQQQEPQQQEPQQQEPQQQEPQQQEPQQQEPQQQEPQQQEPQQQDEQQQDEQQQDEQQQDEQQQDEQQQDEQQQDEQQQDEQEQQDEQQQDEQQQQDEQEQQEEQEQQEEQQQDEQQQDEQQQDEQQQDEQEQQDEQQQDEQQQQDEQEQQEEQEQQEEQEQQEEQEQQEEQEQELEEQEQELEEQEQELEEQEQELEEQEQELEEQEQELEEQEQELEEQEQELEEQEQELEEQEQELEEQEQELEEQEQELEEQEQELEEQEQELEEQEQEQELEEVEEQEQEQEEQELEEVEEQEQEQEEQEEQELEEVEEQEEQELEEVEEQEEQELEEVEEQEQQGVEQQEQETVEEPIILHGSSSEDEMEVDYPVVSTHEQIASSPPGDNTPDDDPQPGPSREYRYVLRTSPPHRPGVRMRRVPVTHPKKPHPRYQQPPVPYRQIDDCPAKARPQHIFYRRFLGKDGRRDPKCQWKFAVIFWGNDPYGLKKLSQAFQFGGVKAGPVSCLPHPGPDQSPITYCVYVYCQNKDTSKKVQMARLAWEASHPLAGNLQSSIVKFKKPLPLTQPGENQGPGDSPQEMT
# Vif A3G: inhibitors of Vif binding to APOBEC3G peptide, primary screen, biochemical, TR-FRET, GST-Vif 1-94, biotin-A3G peptide, dose response retest (AID 1117319); Virion infectivity factor (Human immunodeficiency virus type 1 group M subtype B (isolate …; TR-FRET GST-Vif / biotin-A3G peptide binding; higher % means a stronger effect; test concentration not given here; strong numbers were not always called active; one-dose inhibition, %; IC50 in µM for titrated hits; 0.57% of 260,000 active;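 active means above the screen mean plus three standard deviations and confirmed in dose response; inconclusive means results disagree or hit not tested in dose response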;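 further: Vif residues 1-94 fused to GST binding biotinylated APOBEC3G peptide 110-148; 0% = full assay without inhibitor and 100% = GST in place of GST-Vif; retest series ran down from 100 µM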
# ALR inh: inhibitors of human ALR sulfhydryl oxidase, primary screen, biochemical, H2O2 detection, HRP-luminol luminescence, single point | 3.8% of 290,000 active | purified ALR, DTT oxidation | FAD-linked sulfhydryl oxidase ALR (Homo sapiens), P55789 | AID 485317, 2010 | inhibition, % (concentration not given with the values);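 active means mean and each replicate at 75% or more; inconclusive means only one of the two met; inactive means neither met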;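 further: stock transfer was 7.5 nL into about 7.5 µL; 0% = neutral wells and 100% = wells with inactivated enzyme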
# HNF4A DNA FP: change in binding of human HNF4A to DNA, primary screen, biochemical, fluorescence polarization, FITC-DNA. 1 h. activity change, % at 10 µM. 0.3% of 360,000 active. AID 1224865, 2016; in the data active means activity change above about 30%, passing the limit was not always enough;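 further: controls were the assay level and a saturating level of protein; the project sought stronger binding though the title names inhibitors; some compounds called inactive have numbers as strong as hits; positive values seem to mean higher polarization but the record does not say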
# The depositor's hits bear a star; u = inconclusive; x = not tested or not shown; & = joins results of further samples. Compounds were not picked by outcome, and some 6.3% of all compounds hit somewhere here.
SMILES,B2AR ag,Calb FLC,RanGTP-Impb inh,LANA-H2B inh,Vif A3G,ALR inh,HNF4A DNA FP
N#Cc1c(-c2ccc(F)cc2)cc(-c2ccccc2)nc1SCC(=O)NCC(=O)O,8,3,-1.4,-5.8,x,3,-1.3
COc1ccc(-c2csc(NC(=O)c3cc(C)on3)c2C#N)cc1OC,6,59,0.8,-0.3,-6%,-5,3.0
CS(=O)(=O)/C(C#N)=C\c1cnc(S(=O)(=O)c2ccccc2)s1,x,1,-0.2,-2.7,x,12,x
Clc1ccc(OCc2nnc(SCCN3CCCCC3)n2Cc2ccco2)cc1,-4,24,7.7,0.4,2%&7%,0,-2.2
N#Cc1cc2c(nc1SCC(=O)O)CCCCC2,0,1,3.6,1.2,x,x,-0.3
CCOC(=O)[C@H]1[C@H]2COc3ccc(C)cc3[C@@H]2N2C(=O)c3cc(OC)c(OC)cc3NC(=O)[C@@]12C,6,x,x,0.6,x,x,2.9
CC1=CC(C)(C)N(C(=O)CSc2ncn[nH]2)c2ccccc21,-1,-13,-0.1,0.6,1%,-1,3.9
Cc1cccc(C)c1NC(=O)NCCSc1snnc1C,0,40,2.1,9.1,-5%,1,-1.7
N#C/C(=C\c1cccc(Cl)c1)C(=O)c1ccccc1,3,0,-1.6,5.5,-5%,96*,-1.5
CC(C)(C)[C@H]1C=C(C(=O)NCc2ccccc2)O[C@@H](OCCCCO)C1,-2,-29,3.5,-0.8,x,4,-0.1
N#Cc1ccc(CSc2nnc(NC(=O)CN3C(=O)C4CC=CCC4C3=O)s2)cc1 (configuration not stated),2,3,u,-1.2,0%,-23,2.5
COc1cc(C(=O)Nc2ccc3c(c2)ncn3C)cc(OC)c1OC,-8,12,7.2,3.0,x,-20,3.2
Cc1cc(=O)c(C(=O)Nc2cccc(C(=O)NC3CC3)c2)nn1-c1ccccc1Cl,4,x,x,-5.2,-3%,-5,-4.7
CC(Oc1ccc(S(=O)(=O)N2CCCC2)cc1[N+](=O)[O-])C(=O)NC(C)c1ccccc1 (configuration not stated),-2,2,-3.7,-4.0,-2%,-4,3.2
CSc1ccc(/C=N/N2CCN(Cc3ccc(Cl)cc3)CC2)cc1,6,-1,-2.6,2.4,-3%,-2,-0.5
O=S1(=O)[C@H]2C[C@@H]3C=C[C@@]2(CN1Cc1cccc(Cl)c1)O3,-5,0,-1.4,-1.6,x,7,-3.7
CS(=O)(=O)c1ccc(NC(=O)C2CC(=O)N(c3ccc4c(c3)OCCO4)C2)cc1 (configuration not stated),4,-3,0.2,4.2,3%,-6,0.3
Cc1ccc(/C(N)=N/OC(=O)c2cccs2)cc1,16,-3,-1.1,4.3,x,86*,3.1
c1cc(CNC2=NCCCCC2)ccn1,-4,25,-0.3,-2.9,0%,x,-2.6
COC(=O)c1ccc(N2NC(=O)/C(=C/c3cc(OC)c(OC)c(OC)c3)C2=O)cc1,19,-20,-6.3,3.1,2%,x,-6.0
CCOC(=O)N1CCN(C(=O)CS(=O)Cc2nc(-c3cccc(C)c3)oc2C)CC1 (configuration not stated),10,0,2.5,-1.2,7%,99*,2.2
COc1ccccc1CN1C(=O)[C@@H]2C(CCC(N)=O)NC3(C(=O)Nc4c3ccc(Cl)c4C)[C@@H]2C1=O (some centres not stated),-2,12,u,1.7,u,3,0.0
COc1cc(NC(=O)C/C(C)=N/NC(=O)c2cccc(O)c2)c(OC)cc1Cl,0,8,0.0,1.2,x,-4,4.1
OCCN1CCN(c2ncnc3sc(-c4ccccc4)cc23)CC1,-12,-1,2.8,4.2,-1%,-7,-0.2
O=S(=O)(N/N=C\c1cccc(F)c1)c1ccccc1,1,0,u,7.2,-7%,8,0.3

# As a working copy, two of the compounds above:
SMILES,B2AR ag,Calb FLC,RanGTP-Impb inh,LANA-H2B inh,Vif A3G,ALR inh,HNF4A DNA FP
CCOC(=O)[C@H]1[C@H]2COc3ccc(C)cc3[C@@H]2N2C(=O)c3cc(OC)c(OC)cc3NC(=O)[C@@]12C,6,x,x,0.6,x,x,2.9
CC1=CC(C)(C)N(C(=O)CSc2ncn[nH]2)c2ccccc21,-1,-13,-0.1,0.6,1%,-1,3.9

# Next section.
SMILES,B2AR ag,Calb FLC,RanGTP-Impb inh,LANA-H2B inh,Vif A3G,ALR inh,HNF4A DNA FP
CC(C)(C)n1nc2c(c1NC(=O)c1ccc(C(F)(F)F)cc1)CS(=O)(=O)C2,-5,-6,-0.3,0.4,x,-15,-2.2
COCCn1c(SCCCC(=O)c2ccc(Br)cc2)nnc1-c1ccncc1,-6,-9,1.5,1.7,-5%,-25,0.7
Cc1ccc(C(=O)CC(C(=O)O)c2cn(CCC#N)c3ccccc23)cc1 (configuration not stated),2,x,x,-2.2,5%,96*,-1.9
Cc1cc(=O)oc(C)c1C(=O)NCC(C)C,7,4,2.1,5.1,u,1,-1.9
CCOC(=O)c1ccc(NC(=S)Nc2ccc(Br)cc2N)cc1,0,11,u,-2.4,x,-7,-1.1
CN(c1cccc(NS(=O)(=O)c2ccccc2)c1)S(C)(=O)=O,0,-11,0.0,0.8,9%,39,-1.0
Cc1ccc(-c2csc(SCC(=O)Nc3cc(C)on3)n2)cc1,-1,u,-3.5,7.2,4%,-39,0.2
CC(=O)Nc1ccc(O)c(-c2nc3ccccc3s2)c1,-6,-28,11,4.1,1%,-3,1.1
Cc1ccc(/C=N/c2sc3c(c2C#N)CCC3)s1,6,-1,0.4,-3.7,u,x,-0.4
O=C(NCC1CCCO1)C(=O)NCC(c1ccco1)N1CCN(c2ccccc2)CC1 (configuration not stated),1,2,1.0,0.5,6%,98*,-1.1
COc1ccc(CC(=O)OCc2cc3cccc(C)c3[nH]c2=O)cc1,-5,-1,5.5,-2.7,2%,2,-0.5
O=C(CSc1ccc2ccccc2c1Br)Nc1cccc(S(=O)(=O)NC2=NCCCCC2)c1,-2,8,-1.5,-2.8,x,-41,-1.9
CC(=O)c1cccc(N2C(=O)C3C4CCC(C4=C(C)C)C3C2=O)c1 (configuration not stated),1,50,-0.6,-3.7,-5%,0,-19
CCc1cccc(C)c1NC(=S)N(CCOC)C(C)c1ccco1 (configuration not stated),-3,3,u,-11,-3%,-8,-0.5
Cc1ccc(C)c(NS(=O)(=O)c2c(C)[nH]c(C)c2C(=O)N2CCCCC2)c1,0,-1,0.2,-1.3,x,2,5.0
O=C(COC(=O)c1cn(-c2ccccc2)nc1-c1ccccc1)c1ccc([N+](=O)[O-])cc1,x,10,u,-2.3,x,-17,x
COc1cccc(CN(C)C(=O)Cc2c[nH]c3ccccc23)c1OC,-4,-13,-5.3,-2.3,x,7,1.2
CN(C)c1ccc2nsnc2c1[N+](=O)[O-],-10,9,u,-4.7,-3%,-10,5.0
CN(C)CCCNC(=S)NCc1ccc(Cl)cc1,0,24,2.8,2.5,x,-5,5.1
CCOC(=O)c1c[nH]c2c(Cl)c(Cl)ccc2c1=O,5,32,-0.7,5.5,0%,-10,5.3
COc1ccc(CNC(=O)COC(=O)/C=C/c2ccc(S(=O)(=O)N3CCOCC3)cc2)cc1,7,2,0.2,5.0,u,x,1.8
O=c1c2ccccc2sn1-c1ccc(S(=O)(=O)N2CCCC2)cc1,-6,10,u,-5.5,-3%,7,-0.3
CCc1nnc(NC(=O)CSc2nnc(-c3ccccc3OC)n2-c2ccc(C)cc2)s1,7,11,6.1,2.1,0%,-4,4.5
Cc1cc(C(C)c2ccccc2)c(O)c(CN2CCOCC2)c1C (configuration not stated),4,13,u,1.4,29µM*,x,-2.0
Fc1ccc(COc2cccc(CNCc3ccncc3)c2)cc1,-2,-12,3.1,-3.8,x,-2,3.1

# Following part.
SMILES,B2AR ag,Calb FLC,RanGTP-Impb inh,LANA-H2B inh,Vif A3G,ALR inh,HNF4A DNA FP
C=CCn1c(SCC(=O)Nc2ccccc2OC)nc(O)c(CC)c1=O,-6,-7,0.6,0.7,1%,x,-1.2
Cc1ccc(NC(=O)c2sc(N)nc2-c2ccc([N+](=O)[O-])cc2)cc1C,-4,-18,-0.9,-3.2,-10%,0,-0.2
Cc1ccc(S(=O)(=O)NC(=O)c2ccc(-c3ccc(C)c4ccccc34)o2)cc1,4,7,-14,1.3,2%,-9,-0.5
Cc1cccc2cc(CN(Cc3ccc(F)cc3)Cc3nnnn3C3CCCC3)c(=O)[nH]c12,-10,9,-0.5,-5.9,20%,-8,-4.3
Cc1nc2ncccn2c1-c1csc(Nc2cccc(C(=O)O)c2)n1,0,2,0.8,-0.3,-2%,51,3.9
COc1ccccc1CNC(=O)C1CCN(C(=O)N(C)C)CC1,-2,-6,-1.5,-2.6,4%,x,-0.9
COc1ccccc1NC(=O)Cc1coc2cc(C)ccc12,-12,-13,-5.6,3.1,u,4,-0.4
COc1ccc(-c2nn(-c3ccccc3)cc2C(=O)Nc2ccc(C(=O)O)cc2)cc1OC,-8,-2,-2.2,2.0,x,64,-3.7
COc1cc(/C=N/n2c(=S)[nH]nc(C)c2=O)cc([N+](=O)[O-])c1O,-5,5,-6.2,1.3,x,13,-0.1
CCCOc1ccc(C(=O)Nn2c(C)nc3ccccc3c2=O)cc1,-8,u,1.3,-1.1,3%,-6,-0.1
COc1ccc(CCNC(=O)c2csc3c2CCCC3)cc1,-1,34,0.1,-7.1,-6%,-3,0.1
C/C(=N/NS(=O)(=O)c1ccc(C)cc1)c1ccc(NC(=O)C(F)(F)F)cc1,13,4,1.6,-0.6,-3%,25,3.3
CN(CC(=O)Nc1ccc(S(=O)(=O)N2CCCC2)cc1)Cc1ccc(Cl)cc1,-5,1,1.1,-2.8,1%,1,1.4
O=C(CN1C(=O)C(=O)N(C2CCCC2)C1=O)Nc1ccc(N2CCOCC2)cc1,3,-8,2.7,-2.8,-8%,4,-0.6
CCn1ncc(C2=NOC(C(=O)Nc3ccccc3C(=O)OC)C2)c1C (configuration not stated),5,-2,7.1,-4.8,-6%,31,0.6
O=C(Cc1ccc([N+](=O)[O-])cc1)Nc1nccs1,0,-6,-0.2,-3.8,12%,30,-2.7
O=C(NC1=C(Nc2ccc(Cl)cc2)C(=O)c2ccccc2C1=O)c1ccccc1,-3,3,u,-5.2,x,-46,1.9
CCN(CC)S(=O)(=O)c1ccc(N2CCCCC2)c(NC(=O)/C=C/c2ccc(OC)c(OC)c2)c1,1,7,-2.9,3.6,14%,-8,0.9
Cc1ccc(-n2[nH]c(C)c(/C=N/NC(=O)c3cccc([N+](=O)[O-])c3)c2=O)cc1C,x,34,-1.4,5.3,x,97*,x

# Rewritten with each value named: part of the list above.
C/C(=N/NS(=O)(=O)c1ccc(C)cc1)c1ccc(NC(=O)C(F)(F)F)cc1
  B2AR ag: 13	Calb FLC: 4	RanGTP-Impb inh: 1.6	LANA-H2B inh: -0.6	Vif A3G: -3%	ALR inh: 25	HNF4A DNA FP: 3.3

O=C(Cc1ccc([N+](=O)[O-])cc1)Nc1nccs1
  B2AR ag: 0	Calb FLC: -6	RanGTP-Impb inh: -0.2	LANA-H2B inh: -3.8	Vif A3G: 12%	ALR inh: 30	HNF4A DNA FP: -2.7

C=CCn1c(SCC(=O)Nc2ccccc2OC)nc(O)c(CC)c1=O
  B2AR ag: -6	Calb FLC: -7	RanGTP-Impb inh: 0.6	LANA-H2B inh: 0.7	Vif A3G: 1%	ALR inh: x	HNF4A DNA FP: -1.2
